Compound activity from PubChem BioAssay.
Vaccinia stage: blocks a specific stage of Vaccinia orthopoxvirus infection. Vaccinia-infected cells, mCherry/Venus stage reporter fluorescence; hits give low values; some inactives read as strong as hits. hit rate 0.01% among 89,000. activity change (mCherry), % (test concentration not listed). AID 1053133;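 active = mCherry past -33% and 40 or more points under the early reporter, replicates agreeing; inconclusive = past -33% without that gap or agreement; tested in A549 cells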;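 note: scaled between vehicle wells and reference inhibitor wells; 23 nL library stock went into each well; one replicate is shown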
Vaccinia stage Venus: further read-out of Vaccinia stage, marked with its call; activity change (Venus), %; measured here: Venus reporter, other viral stage;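 negative = less Venus signal; first of two replicates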
Numbers without * were called inactive; ? = inconclusive; / = no result given; & = joins results of further samples.

Values run as follows: Vaccinia stage	Vaccinia stage Venus
C[C@H]1CN([C@@H](C)CO)C(=O)c2cccc(NS(=O)(=O)c3cccs3)c2O[C@H]1CN(C)C
→ 16	4
CN1c2ccc(-c3ccccc3)cc2[C@@H]2[C@@H](CCN2C(=O)c2ccc3c(c2)OCO3)[C@@H]1CO
→ -24	-19
C[C@H]1CN([C@@H](C)CO)C(=O)c2cccc(NS(=O)(=O)c3ccc(Cl)cc3)c2O[C@@H]1CN(C)Cc1ccc(C(=O)O)cc1
→ 23	21
C[C@@H]1CN([C@H](C)CO)C(=O)c2cccc(NC(=O)Nc3ccc4c(c3)OCO4)c2O[C@H]1CN(C)Cc1ccc(C(F)(F)F)cc1
→ ?	/
O=C(Nc1ccc(F)cc1)N1CC(=O)N2[C@H](C1)[C@H](c1ccc(C#Cc3cccnc3)cc1)[C@@H]2CO
→ ?	/
CCN(C[C@H]1[C@@H](c2ccccc2)[C@H](CO)N1C(C)=O)C(=O)c1ccccn1
→ 19	9
COc1ccccc1-c1cn(CC[C@@H]2CC[C@H](NC(=O)Cc3ccccn3)[C@@H](CO)O2)nn1
→ -5	10
COCCOC(=O)N1C(=O)[C@@]2(c3cc(C#CC4=CCCCC4)ccc31)[C@H](C(=O)NC[C@H](O)c1ccccc1)[C@H]1C(=O)O[C@H](c3ccccc3)[C@H](c3ccccc3)N1[C@@H]2c1ccc(O)cc1
→ -7	3
C[C@H](NC(=O)C[C@H]1CC[C@H]2[C@@H](COc3ccc(NS(=O)(=O)c4ccc(Cl)cc4)cc3C(=O)N2C)O1)c1ccccc1
→ -18	-8
O=C(CN1CCOCC1)N1CCCCN2[C@H](CO)[C@@H](c3ccc(/C=C/c4ccccc4)cc3)[C@@H]2C1
→ -16	-6
Cc1ccccc1-c1ccc([C@H]2[C@H](CO)N3CCCCN(S(C)(=O)=O)C[C@@H]23)cc1
→ 1	-1
Cc1ccc(S(=O)(=O)N(C)C[C@@H]2Oc3c(NC(=O)c4cnccn4)cccc3C(=O)N([C@@H](C)CO)C[C@@H]2C)cc1
→ 6	12
C[C@H](CO)N1C[C@H](C)[C@@H](CN(C)S(=O)(=O)c2ccccc2)Oc2ccc(NC(=O)Nc3ccc(C(F)(F)F)cc3)cc2CC1=O
→ ?	/
CC(C)NC(=O)N(C)C[C@@H]1OCCCC[C@@H](C)Oc2ccc(NC(=O)Cc3ccccc3)cc2C(=O)N([C@H](C)CO)C[C@@H]1C
→ 14	4
CN1c2ccc(-c3ccccc3F)cc2[C@@H]2[C@@H](CCN2C(=O)c2ccccn2)[C@H]1CO
→ -4	2
O=C(CC1CC1)Nc1ccc2c(c1)[C@@H]1C[C@@H](CC(=O)N3CCc4ccccc4C3)O[C@H](CO)[C@@H]1O2
→ 0	8
COc1ccc2c3c([nH]c2c1)[C@H](CO)N(C(=O)Nc1ccc(F)cc1)CC31CCN(S(=O)(=O)c2cccs2)CC1
→ -25	-22
COc1cccc(CN2CC3(C2)[C@H](c2ccccc2)[C@H](CO)N3C(=O)Cc2ccccc2)c1
→ 19	19
CN(C)c1ccc2c(c1)[C@@H]1C[C@@H](CC(=O)NCc3ccc4c(c3)OCO4)O[C@@H](CO)[C@@H]1O2
→ -10	0
O=C(C[C@H]1CC[C@H](NS(=O)(=O)c2ccc(F)cc2)[C@@H](CO)O1)N1CCC(Cc2ccccc2)CC1
→ ?	/
COCC(=O)N1CCCCN2[C@@H](CO)[C@@H](c3ccc(-c4ccc(C)cc4)cc3)[C@@H]2C1
→ -11	-16
C[C@H](CO)N1C[C@H](C)[C@H](CN(C)S(=O)(=O)c2ccc([N+](=O)[O-])cc2)OCc2ccccc2-c2c(n(C)c3ccccc23)C1=O
→ ?	/
C[C@@H]1CN([C@H](C)CO)C(=O)c2cccc(NC(=O)C3CCOCC3)c2O[C@H]1CN(C)Cc1ccc(C(F)(F)F)cc1
→ 3	7
CCCNC(=O)C[C@@H]1CC[C@H]2[C@@H](COc3ccc(NC(=O)c4cccc(Cl)c4)cc3C(=O)N2C)O1
→ 0	3
C[C@@H]1CN([C@H](C)CO)C(=O)Cc2cc(NS(C)(=O)=O)ccc2O[C@H]1CN(C)S(=O)(=O)c1ccc(Cl)cc1
→ 6	4
C/C=C/c1ccc([C@@H]2[C@@H](CO)N(C(C)=O)C23CN(C(=O)c2ccncc2)C3)cc1
→ -1	5
CC(C)CC#Cc1ccc2c(c1)O[C@@H](CN(C)C(=O)c1ccncc1)[C@H](C)CN([C@@H](C)CO)S2(=O)=O
→ -24	-21
C[C@H](CO)N1C[C@H](C)[C@H](CN(C)S(=O)(=O)c2cccc(C#N)c2)OCc2ccccc2-c2ccccc2C1=O
→ -3	-18
CN1c2ccc(C#Cc3cccnc3)cc2[C@H]2[C@H](CCN2C(=O)C2CCCC2)[C@@H]1CO
→ 3	11
CO[C@@H]1CN(C)C(=O)c2cc(NC(=O)C3CCCC3)ccc2OC[C@@H](C)N(CC2CC2)C[C@@H]1C
→ 0	10
C[C@H]1CN([C@@H](C)CO)C(=O)c2cc(NC(=O)Cc3ccccc3)ccc2O[C@H]1CN(C)Cc1ccc(C(F)(F)F)cc1
→ -29	-19
COc1ccc(NC(=O)Nc2cccc3c2O[C@H](CN(C)Cc2ccccc2)[C@H](C)CN([C@@H](C)CO)C3=O)cc1
→ 5	0
O=C(Nc1cccc(F)c1)N1CCCCN2[C@H](C1)[C@@H](c1ccc(-c3ccncc3)cc1)[C@@H]2CO
→ -14	-15
O=C(C[C@@H]1C[C@H]2c3cc(NC(=O)Nc4ccc(F)cc4)ccc3O[C@H]2[C@@H](CO)O1)NC1CCCC1
→ -5	-5
CCNC(=O)[C@@H]1[C@@H](CO)[C@@H]2Cn3c(ccc(-c4cncnc4)c3=O)[C@H]1N2C(=O)Nc1ccccc1
→ 11	14
CCCNC(=O)N1[C@H](CO)[C@H](c2ccc(C3=CCCCC3)cc2)[C@H]1CNC(C)C
→ -20	-15
CC(=O)N(C)C[C@@H]1OCc2ccccc2-c2c(n(C)c3ccccc23)C(=O)N([C@H](C)CO)C[C@H]1C
→ 1	-12
CCOC(=O)[C@@H]1[C@@H]2NC(=O)N[C@@]1(C)Oc1ccccc12
→ 14&18	13&5
O=C(c1cccc(F)c1)N1CCCCN2[C@@H](CO)[C@H](c3ccc(-c4cccnc4)cc3)[C@@H]2C1
→ 19	-3
Cc1noc(C)c1NC(=O)Nc1ccc2c(c1)CC(=O)N([C@H](C)CO)C[C@@H](C)[C@@H](CN(C)C(=O)Nc1ccccc1)O2
→ 1	7
COc1ccccc1-c1ccc2c(c1)[C@H]1[C@H](CCN1C(=O)C1CCCC1)[C@H](CO)N2
→ ?	/
C[C@@H]1CN([C@@H](C)CO)C(=O)c2cc(NC(=O)Nc3ccc(F)cc3)ccc2O[C@@H]1CN(C)C(=O)NC1CCCCC1
→ 1	0
COc1cccc(CNC(=O)[C@H]2[C@H](CO)[C@H]3Cn4c(ccc(-c5cccnc5)c4=O)[C@H]3N2C)c1
→ 7	6
O=C(Nc1ccc2c(c1)OCO2)N[C@@H]1CC[C@H](CCNC(=O)C2CC2)O[C@@H]1CO
→ -7	-11
C[C@@H]1CN([C@H](C)CO)C(=O)c2cc(N(C)C)ccc2O[C@@H](C)CCCCO[C@H]1CN(C)S(=O)(=O)c1ccccc1
→ -12	-6
CN1C(=O)c2cc(NC(=O)Nc3ccccc3)ccc2OC[C@@H]2O[C@@H](CC(=O)NC3CCC3)CC[C@@H]21
→ 1	10
CCC(=O)N1[C@@H]2c3ccc(-c4cccc(F)c4)c(=O)n3C[C@@H]2[C@@H](CO)[C@@H]1C(=O)OC
→ 14	10
O=C(C[C@@H]1CC[C@@H](NC(=O)Nc2ccc(F)cc2)[C@H](CO)O1)NCc1cccc(F)c1
→ 33	13
COCCNC(=O)[C@@H]1[C@@H](CO)[C@@H]2Cn3c(ccc(-c4ccc(OC)cc4)c3=O)[C@H]1N2C(=O)NC(C)C
→ 1	3
C[C@@H]1CN([C@H](C)CO)S(=O)(=O)c2ccc(-c3ccccc3)cc2O[C@H]1CN(C)C(=O)C1CCCCC1
→ ?	/
COc1ccc(NC(=O)Nc2ccc3c(c2)C(=O)N([C@H](C)CO)C[C@@H](C)[C@@H](CN(C)Cc2ccc(C(=O)O)cc2)O3)cc1
→ -5	2
O=C(c1ccccc1)N1CC2(C1)[C@@H](c1ccccc1)[C@@H](CO)N2CC1CC1
→ 0	9
C[C@@H]1CN([C@@H](C)CO)C(=O)c2cc(NC(=O)CCC(F)(F)F)ccc2O[C@H]1CN(C)Cc1ccccc1
→ -4	-5
CCCC#Cc1cnc2c(c1)C(=O)N([C@H](C)CO)C[C@H](C)[C@H](CN(C)C(=O)NC1CCCC1)O2
→ 6	1
C[C@H](CO)N1C[C@H](C)[C@@H](CN(C)Cc2ccc(Oc3ccccc3)cc2)Oc2c(NS(=O)(=O)c3ccc(Cl)cc3)cccc2C1=O
→ ?	/
CCCC#Cc1ccc([C@@H]2[C@H]3CN(S(=O)(=O)c4ccccc4C)CC(=O)N3[C@H]2CO)cc1
→ -10	-6
O=S(=O)(c1ccccc1)N1CCCCN2[C@H](C1)[C@H](c1ccc(-c3ccccc3)cc1)[C@@H]2CO
→ 18	5
CC(=O)N(C)C[C@@H]1Oc2ncc(C3=CCCC3)cc2C(=O)N([C@H](C)CO)C[C@H]1C
→ 11	12
O=C(Nc1ccccc1)C1=C[C@@H](c2ccc(C(F)(F)F)cc2)C[C@@H](OCCCCO)O1
→ 0	-11
O=C(C[C@@H]1CC[C@@H](NC(=O)C2CC2)[C@H](CO)O1)Nc1nccs1
→ -4	-3

(listing goes on)
Values run as follows: Vaccinia stage	Vaccinia stage Venus
C[C@H](CO)N1C[C@H](C)[C@@H](CN(C)C(=O)Nc2ccccc2)Oc2ccc(NC(=O)C3CCCCC3)cc2CC1=O
→ -23	148
CN1C(=O)c2cc(NC(=O)Cc3ccccc3)ccc2OC[C@@H]2O[C@@H](CC(=O)NC3CCC3)CC[C@@H]21
→ 12	1
COc1ccc(S(=O)(=O)N(C)C[C@H]2Oc3ccc(N(C)C)cc3C(=O)N([C@@H](C)CO)C[C@@H]2C)cc1
→ -7	-8
COc1ccc(S(=O)(=O)N2CCCCN3[C@H](CO)[C@H](c4ccc(-c5cccnc5)cc4)[C@H]3C2)cc1
→ -28	-23
C[C@H](CO)N1C[C@H](C)[C@H](CN(C)Cc2ccccc2)Oc2cc(-c3cncnc3)ccc2S1(=O)=O
→ 1	-6
Cc1cc(C(=O)Nc2cccc3c2O[C@H](CN(C)Cc2ccccc2)[C@H](C)CN([C@H](C)CO)C3=O)n(C)n1
→ -1	-3
CC(C)NC(=O)Nc1cccc2c1O[C@H](CN(C)CC1CCCCC1)[C@@H](C)CN([C@H](C)CO)C2=O
→ -8	1
CN(C)c1ccc2c(c1)[C@H]1C[C@H](CC(=O)NCC3CC3)O[C@H](CO)[C@H]1O2
→ 3	12
C[C@H]1CN([C@@H](C)CO)S(=O)(=O)c2ccc(-c3cccc(C#N)c3)cc2O[C@H]1CN(C)C(=O)c1cccnc1
→ 16	22
N#C[C@H]1[C@@H](c2ccccc2C2=CCCC2)[C@@H](CO)N1C(=O)CN1CCOCC1
→ 14	10
CCC(=O)N[C@H]1CC[C@@H](CC(=O)NCc2ccccc2F)O[C@@H]1CO
→ 14	7
CN1C(=O)c2cc(NC(=O)Nc3ccccc3)ccc2OC[C@H]2O[C@@H](CC(=O)NC3CCC3)CC[C@@H]21
→ 8	6
CO[C@@H]1CN(C)C(=O)c2ccc(NC(=O)NC(C)C)cc2OC[C@@H](C)N(CC2CC2)C[C@@H]1C
→ 0	6
C[C@H]1CN([C@@H](C)CO)C(=O)Cc2cc(NC(=O)Nc3ccc(F)cc3)ccc2O[C@@H]1CN(C)C(=O)NC1CCCCC1
→ 21	12
CN(C)CCCNC(=O)C[C@H]1CC[C@@H]2[C@H](COC[C@H](O)CN2CC2CCCC2)O1
→ -3	1
CCCNC(=O)[C@@H]1[C@@H](CO)[C@@H]2Cn3c(ccc(-c4ccccc4)c3=O)[C@H]1N2C(=O)C1CC1
→ 14	6
C[C@H]1CN([C@@H](C)CO)C(=O)c2cc(NS(=O)(=O)c3ccc(Cl)cc3)ccc2O[C@H]1CN(C)CC1CC1
→ 10	13
COc1ccc(C(=O)Nc2ccc3c(c2)OC[C@H](C)N(C)C[C@H](C)[C@@H](OC)CN(C)C3=O)cc1
→ -12	-11
C[C@H](CO)N1C[C@H](C)[C@@H](CN(C)C(=O)Nc2cc(F)ccc2F)Oc2cc(-c3cccc(F)c3)ccc2S1(=O)=O
→ -32	-17
C[C@@H]1CN([C@H](C)CO)C(=O)c2cccc(NS(=O)(=O)c3ccc(Cl)cc3)c2O[C@H]1CN(C)Cc1ccc(Cl)c(Cl)c1
→ -27	-19

The list is partial; rates above refer to the full screens.
